# Screens deposited in PubChem BioAssay by several laboratories.
# MT1-MMP act inh – blockers of MT1-MMP proenzyme processing, primary screen, HT1080 RFP-PRO-GFP cells, GFP/RFP fluorescence | GFP/RFP ratio fluorescence, overnight; percent of plate control window, DMSO zero | GFP/RFP ratio change, % at 20 µM | 360,000 compounds, 0.061% hits;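 active = GFP/RFP ratio change of at least 30% with cell ATP level not reduced by more than half and red fluorescence within 50% of control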; note: strong numbers were not always called active
#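 Assay system – RFP-PRO-GFP reporter HT1080 cells · Compound dosing – single dose of 20 µM compound, 1% DMSO final · Incubation – overnight compound exposure at 37 °C · Measure – GFP/RFP fluorescence ratio · Benchmarks – DMSO wells and RFP-L50D-GFP cells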
# CSC inhib – cancer stem cell viability inhibitors, primary screen, luminescence. cancer stem cell-like cells viability. inhibition, % at 7.5 µM. 300,000 compounds, 1.1% hits. AID 2717, 2010;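 active = mean at 75% or more and at least half the replicates too; inconclusive = mean and replicates disagree; tested in HMLE shEcad cells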;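 note: 0% = median of negative and 100% = median of positive control wells; the first replicate is given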
# eIF4H FP inh – human eIF4H binding inhibitors, primary screen, translation initiation inhibitor project, biochemical, uHTS, fluorescence polarization | Eukaryotic translation initiation factor 4H (Homo sapiens), Q15056 | eIF4H fluorescence polarization binding assay | inhibition, % at 35 µM | 290,000 compounds, 0.94% hits | AID 2012, 2009;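 active = 50% or more with normal probe brightness, or confirmed in later tests; inconclusive = above 50% with abnormal brightness, or retests that disagree; inactive = below 50% or failed in later tests; about a fifth of its hits are not listed in these tables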;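 note: calls also rest on retests at 20 µM and on dose response follow-up; 0% = protein and probe with vehicle and 100% = probe without protein; strong numbers were not always called active; many hits fall short of the cut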
# HIV Env fusion – inhibitors of HIV-1 Env-driven cell-cell fusion, primary screen, HeLa-JRFL effector, CEM21 target cells, luciferase; AID 651610, 2012; inhibition, % at 12.3 µM; 360,000 compounds, 1.1% hits;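 active = mean replicate inhibition score of at least 50 and every replicate individually at or above 50; inconclusive = only one of the two criteria met; inactive = mean below 50 and not all replicates reaching 50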;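 note: 0% = plate neutral controls and 100% = maraviroc near 300 nM; one replicate is shown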
# Rce1 inhib – yeast Rce1p protease inhibitors, primary screen, biochemical, fluorescence, cell-free homogeneous; CAAX prenyl protease 2 (Saccharomyces cerevisiae (strain ATCC 204508 / S288c)), Q03530; yeast membranes, quenched prenylated peptide cleavage fluorescence; calls only; 290,000 compounds, 0.27% hits;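 active = fall in fluorescence gain of 50% or more versus controls, with final raw signal at or below 3038400; inconclusive = same 50% fall but final raw signal above 3038400; inactive = fall in fluorescence gain under 50%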;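 note: plate controls were neutral control wells for no effect and wells lacking membranes for full effect; tested at 10 µM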
# Target sequence (Q03530 whole entry, looked up): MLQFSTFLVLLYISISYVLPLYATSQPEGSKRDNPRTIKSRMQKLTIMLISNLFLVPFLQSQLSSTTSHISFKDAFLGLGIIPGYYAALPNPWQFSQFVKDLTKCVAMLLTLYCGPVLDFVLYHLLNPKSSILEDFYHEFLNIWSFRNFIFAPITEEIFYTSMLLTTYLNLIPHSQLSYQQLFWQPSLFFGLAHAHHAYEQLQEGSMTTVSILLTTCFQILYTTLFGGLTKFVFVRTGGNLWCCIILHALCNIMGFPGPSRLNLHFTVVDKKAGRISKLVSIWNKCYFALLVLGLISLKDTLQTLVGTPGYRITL
# Yeast UUG start – modulators of yeast start codon fidelity, primary screen, whole organism, S. cerevisiae, single point, plate reader; S. cerevisiae UUG-firefly luciferase reporter, luminescence/redox ratio; activity score, % at 18.7 µM; 350,000 compounds, 0.13% hits; AID 602363, 2012;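 active = replicate mean at a twofold rise or more, about +100% in these data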;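 note: firefly luciferase made from a UUG start codon reports start codon fidelity; reporter light over untreated wells divided by growth signal over untreated wells; some hits fall short of that in this replicate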
# PABP polyA inh – PABP poly(A) RNA binding inhibitors, primary screen, biochemical, fluorescence polarization, uHTS | Polyadenylate-binding protein 1 (Homo sapiens), P11940 | inhibition, % at 35 µM | 290,000 compounds, 1% hits | AID 2014, 2009;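 active = 50% or more with normal probe brightness, or confirmed in later tests; inconclusive = above 50% with abnormal brightness, or retests that disagree; inactive = below 50% or failed in later tests; about a fifth of its hits are not listed in these tables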;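 note: calls also rest on retests at 20 µM and on dose response follow-up; controls were probe without protein and protein plus probe with vehicle; some compounds called inactive have numbers as strong as hits; many hits fall short of the cut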
# Target sequence (P11940 whole entry, looked up): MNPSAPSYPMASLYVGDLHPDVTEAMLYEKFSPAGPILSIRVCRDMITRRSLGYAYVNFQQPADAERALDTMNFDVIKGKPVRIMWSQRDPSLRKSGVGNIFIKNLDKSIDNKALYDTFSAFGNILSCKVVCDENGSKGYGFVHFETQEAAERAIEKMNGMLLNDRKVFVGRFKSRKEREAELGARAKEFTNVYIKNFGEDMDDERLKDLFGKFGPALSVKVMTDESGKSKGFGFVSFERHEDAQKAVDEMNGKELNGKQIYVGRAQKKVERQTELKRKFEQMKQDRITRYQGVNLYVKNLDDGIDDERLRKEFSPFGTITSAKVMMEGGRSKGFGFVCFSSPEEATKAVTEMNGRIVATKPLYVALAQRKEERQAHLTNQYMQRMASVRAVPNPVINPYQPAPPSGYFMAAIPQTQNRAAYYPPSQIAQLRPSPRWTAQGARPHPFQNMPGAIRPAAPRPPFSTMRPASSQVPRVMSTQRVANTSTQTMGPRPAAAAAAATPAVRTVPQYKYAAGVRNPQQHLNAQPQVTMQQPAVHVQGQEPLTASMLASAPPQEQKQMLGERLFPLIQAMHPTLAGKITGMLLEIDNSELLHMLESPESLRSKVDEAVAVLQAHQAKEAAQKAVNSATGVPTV
# eIF4H FP inh retest – recorded beside eIF4H FP inh, whose call it bears; inhibition, %; compound at 20 µM; confirmation average;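 mean of two retest wells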
# PABP polyA inh retest – recorded beside PABP polyA inh, whose call it bears; inhibition, %; compound at 20 µM; confirmation repeats;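 mean of two retest wells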
# MT1-MMP act inh RFP – second read-out of MT1-MMP act inh, no call of its own (marks repeat the call); RFP signal change, %; measured here: RFP expression control read;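 0 = vehicle wells; hits needed this value within 50% of zero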
# Starred values were filed as active, the others as inactive; i = inactive; ? = inconclusive; . = no result given.
SMILES,MT1-MMP act inh,MT1-MMP act inh RFP,CSC inhib,eIF4H FP inh,HIV Env fusion,Rce1 inhib,Yeast UUG start,PABP polyA inh,others
COc1cc(C(=O)OCc2ccc([N+](=O)[O-])cc2)cc(OC)c1OC,4,4,-6,-7,12,i,.,-11,
COc1ccc(C(=O)NN/C(C)=C/C(=O)c2ccccc2)cc1,-3,0,21,-17,9,i,-13,6,
O=C(O)c1ccc(CNC(=O)C23CC4CC(CC(C4)C2)C3)cc1,3,6,-11,-4,-9,i,-6,2,
Cc1nnc(NC(=O)CC(CN(C)S(=O)(=O)c2ccccc2)c2ccccc2)s1 (stereo not given),-2,0,-4,1,-10,i,-9,-5,
Cc1cc(CN(C)C)c(O)c(C2(C)CCCCC2)c1,-3,3,.,-8,.,i,-14,-6,
C=CCN=C1SC(C)(C)C(=O)N1S(=O)(=O)c1ccc(C)cc1,2,4,-5,2,19,i,7,-14,
COc1ccc(CC2CCOC2=O)cc1 (stereo not given),-1,1,-2,-4,-46,i,2,-4,
O=C(/C=C/c1cccc(Cl)c1)c1nc2ccccc2[nH]1,-23,-16,84*,-2,-387,i,-25,-8,
COc1cccc(OC)c1C(=O)Nn1c(C2CCC2)nc2ccccc2c1=O,3,1,-12,3,-57,i,.,1,
CC(C)CNC(=O)N[C@@H](CC(C)C)C(=O)O,0,2,-4,-4,-2,i,.,-10,
Cc1ccc(NC(=O)CSC2=C(C#N)C(c3ccco3)CC(=O)N2)cc1 (stereo not given),6,-2,-1,-2,.,i,.,-9,
Cc1cccc(N2C(=O)C3C4C=CC(C4)C3C2=O)c1 (stereo not given),1,4,-4,-7,.,i,.,8,
CCc1ccc(CN(C)C(=O)CCc2nnc(CCc3cccc(OC)c3)o2)nc1,7,4,9,9,-20,.,.,-5,
CCCCCCSC1=C(C#N)C(c2ccccc2)CC(=O)N1 (stereo not given),0,-4,5,-1,.,i,.,-8,
COc1ccc(N2CCN(C(=O)CSc3nnc(-c4cccnc4)n3-c3ccccc3)CC2)cc1,1,2,5,4,10,i,-15,0,
Cc1ccc(S(=O)(=O)N2CCC(NC(=O)C3CCCCC3)CC2)cc1,1,1,-16,-14,-4,i,-17,-3,
COc1ncnc2c1NC(=O)CS2,-4,5,-3,-10,.,i,-16,6,
COc1cc(C2C(C#N)=C(C)NC3=C2C(=O)CC(C)(C)C3)ccc1OCCO (stereo not given),-3,-2,-9,-8,.,.,-10,-2,
COc1cc(-c2nnc(SCC(=O)N(C)C3CCS(=O)(=O)C3)o2)cc(OC)c1OC (stereo not given),5,6,20,2,4,i,.,?,
CCOC(=O)C1CCN(c2nc3ccccc3nc2C(C#N)C(=O)OC(C)C)CC1 (stereo not given),-42,-21,5,-8,.,i,-45,-8,
CC(=O)Nc1sc2c(c1CN1CCN(c3ccc(F)cc3)CC1)CCCC2,-3,-9,-5,-2,-70,i,-15,-10,
CCOC(=O)C1(Cc2cccc(OC)c2)CCCN(Cc2c(C)nn(C(C)C)c2C)C1 (stereo not given),-3,-2,1,-1,13,i,-10,-5,
COc1ccc(CCNC(=O)c2ccco2)cc1OC,1,2,3,-3,4,i,.,-3,
CC1CN(Cc2ccccc2)c2nc3c(c(=O)n(CC(N)=O)c(=O)n3C)n2C1 (stereo not given),-2,1,6,1,-11,i,1,0,
O=C(NC1CCS(=O)(=O)C1)c1cccc(S(=O)(=O)N2CCCC2)c1 (stereo not given),-1,6,-9,-5,-8,i,9,-1,
O=C1NC(=O)C(c2ccccc2)(c2ccccn2)N1 (stereo not given),-3,-5,.,.,-17,.,-26,.,
CCn1c(/C=C/c2ccccc2)nc2ccccc21,-3,-5,17,-4,-306,?,-29,-11,
CCC(C)NC(=O)N1c2ccccc2Sc2ccccc21 (stereo not given),-1,-1,-1,-1,5,i,.,7,
O=C1CC2(CCCC2)CC(=O)N1c1ccccc1,-1,2,-2,4,-15,i,-6,14,
NC(=O)N/N=C/c1sc(N2CCCCC2)nc1-c1cccs1,-5,5,31,.,-21,i,-18,.,
CCN(CC)c1ccc(/C=C(/C#N)C(=O)NCc2ccccc2)o1,-102,6,7,?,-11,i,.,-8,
COc1cccc(C(=O)Nc2ccccc2N2CCCC2)c1,1,1,13,-6,-54,i,-11,9,
Cc1cc(N)ccc1S(C)(=O)=O,0,2,17,-10,16,i,-17,-15,
COC(=O)C(Cc1ccccc1)N1CCS(=O)(=O)CC1 (stereo not given),-1,5,-7,7,-10,i,-6,-4,
CCOC(=O)c1c(C)[nH]c(C(=O)OCC(=O)Nc2sccc2C(N)=O)c1C,-8,-20,43,.,.,i,.,.,
COc1ccc(NC(=O)CC2C(=O)N(c3ccc(F)cc3)C(=S)N2NC(=O)c2ccccc2)cc1 (stereo not given),9,6,-6,1,-33,i,.,-4,
COc1ccc2[nH]c(=S)cc(C)c2c1,0,2,-16,5,4,i,-20,9,
Cc1ccccc1-n1nc2c(c1NC(=O)c1ccc(Br)o1)CSC2,4,-1,-1,4,.,i,.,5,
Cc1oc(-c2ccccc2F)nc1CS(=O)CC(=O)NCc1ccccn1 (stereo not given),-2,1,-8,-4,-13,i,-19,2,
COc1cc2c(cc1OC)CN(C(=O)c1cccc(S(=O)(=O)N3CCc4ccccc43)c1)CC2,0,-3,34,.,.,.,-6,.,

# Next part; it opens with the 2 that closed the last part.
SMILES,MT1-MMP act inh,MT1-MMP act inh RFP,CSC inhib,eIF4H FP inh,HIV Env fusion,Rce1 inhib,Yeast UUG start,PABP polyA inh,others
Cc1oc(-c2ccccc2F)nc1CS(=O)CC(=O)NCc1ccccn1 (stereo not given),-2,1,-8,-4,-13,i,-19,2,
COc1cc2c(cc1OC)CN(C(=O)c1cccc(S(=O)(=O)N3CCc4ccccc43)c1)CC2,0,-3,34,.,.,.,-6,.,
COc1ccccc1NC(=O)COC(=O)C1CCCC1,9,4,-22,.,.,.,-14,.,
Cc1ccc(-c2cc(C(=O)NC3CCCC3)no2)cc1,-2,-2,-5,5,-92,i,-15,13,
CCCC(c1nnnn1CC1CCCO1)N1CCN(c2ccccc2)CC1 (stereo not given),4,6,11,6,5,i,.,19,
O=C(CCC(=O)N(CC(=O)NC1CCCC1)C1CCCC1)Nc1ccccn1,-1,7,-1,12,.,i,-10,7,
CC1CN(S(=O)(=O)Cc2ccccc2)CC(C)O1 (stereo not given),-3,3,-3,2,-6,i,6,0,
Cc1cccc(N2CCN(C(=O)c3ccc(CS(=O)Cc4cccc(Cl)c4)o3)CC2)c1C (stereo not given),-1,-7,14,0,8,i,-3,6,
C(=N\n1cnnc1)/c1cn(Cc2ccccc2)c2ccccc12,0,-1,0,-6,.,i,-1,-9,
COc1ccc(-c2c(C)oc3c(CN4CCOCC4)c(O)ccc3c2=O)cc1,4,9,-7,0,8,i,-15,-1,
COc1cc2cc(C(=O)N3CCOCC3)cc(-c3ccc(C)cc3)c2cc1OC,-6,-9,-2,7,4,i,20,3,
O=C(OCC(=O)N1CCc2ccccc21)c1cccc(S(=O)(=O)N2CCCc3ccccc32)c1,.,.,9,-3,-4,i,.,-9,
COc1ccc(CN(CC2CCC(C(=O)O)CC2)C(=S)Nc2ccccc2OC)cc1 (stereo not given),2,3,.,-1,6,i,.,68,eIF4H FP inh retest=-8;PABP polyA inh retest=4
CCOc1cc(C(=S)N2CCOCC2)ccc1OC(=O)c1cc(OC)c(OC)c(OC)c1,-2,-5,-1,7,6,i,-4,-10,
C=CC1=CCN(S(=O)C(C)(C)C)[C@H]1CCO (stereo not given in full),1,3,.,.,?,.,2,.,
O=C1Cc2cccc(=O)c(O)c2C(=O)O1,1,4,.,.,15,.,-3,.,
CC(=O)N1CCN(c2ccccc2NC(=O)c2cc3ccccc3o2)CC1,0,-2,-12,7,-4,i,0,12,
CC(=O)Nc1ccccc1NC(=O)COc1cccc2ccccc12,3,1,-3,-14,2,i,-15,-3,
COc1cc(OC)cc(-c2nnc(NC(=O)CCS(=O)(=O)c3ccc(F)cc3)o2)c1,0,-1,21,.,-3,i,-10,.,
CC1(C)CC(=O)c2sc(NC(=O)c3cccs3)nc2C1,6,0,3,-1,-293,i,-30,6,
Cc1ccc(C)c(Cn2cnc3c(nnn3-c3ccc(F)cc3)c2=O)c1,-7,3,-1,-4,-76,i,-16,2,
COc1ccc(S(=O)(=O)N(C)C)cc1NC(=O)CSc1nc(N)cc(N)n1,1,1,-16,-1,5,i,-17,-1,
CC(OC(=O)c1ccc2c(c1)OCCO2)C(=O)NC1CCCCC1C (stereo not given),-4,-11,-24,.,4,i,.,.,
C=CCN(c1ccccc1)S(=O)(=O)c1cccc(C(=O)NCC(c2cccs2)N2CCOCC2)c1 (stereo not given),-1,-12,.,.,-3,i,.,.,
COC(=O)C1=C(C)NC(C)=C(C(=O)OC)C1c1ccc(NC(C)=O)cc1,6,2,-6,-2,.,i,5,6,
Cc1c(Cl)cccc1NC(=S)N1CCN(Cc2ccc3c(c2)OCO3)CC1,4,1,1,2,3,.,.,8,
Cc1cc(Cn2nc(C(=O)NCc3cccs3)cc2-c2ccccc2)on1,-3,-1,-5,.,8,.,-9,.,

# By substructure, those above with a halogen.
SMILES,MT1-MMP act inh,MT1-MMP act inh RFP,CSC inhib,eIF4H FP inh,HIV Env fusion,Rce1 inhib,Yeast UUG start,PABP polyA inh,others
O=C(/C=C/c1cccc(Cl)c1)c1nc2ccccc2[nH]1,-23,-16,84*,-2,-387,i,-25,-8,
CC(=O)Nc1sc2c(c1CN1CCN(c3ccc(F)cc3)CC1)CCCC2,-3,-9,-5,-2,-70,i,-15,-10,
COc1ccc(NC(=O)CC2C(=O)N(c3ccc(F)cc3)C(=S)N2NC(=O)c2ccccc2)cc1 (stereo not given),9,6,-6,1,-33,i,.,-4,
Cc1ccccc1-n1nc2c(c1NC(=O)c1ccc(Br)o1)CSC2,4,-1,-1,4,.,i,.,5,
Cc1oc(-c2ccccc2F)nc1CS(=O)CC(=O)NCc1ccccn1 (stereo not given),-2,1,-8,-4,-13,i,-19,2,
Cc1cccc(N2CCN(C(=O)c3ccc(CS(=O)Cc4cccc(Cl)c4)o3)CC2)c1C (stereo not given),-1,-7,14,0,8,i,-3,6,
COc1cc(OC)cc(-c2nnc(NC(=O)CCS(=O)(=O)c3ccc(F)cc3)o2)c1,0,-1,21,.,-3,i,-10,.,
Cc1ccc(C)c(Cn2cnc3c(nnn3-c3ccc(F)cc3)c2=O)c1,-7,3,-1,-4,-76,i,-16,2,
Cc1c(Cl)cccc1NC(=S)N1CCN(Cc2ccc3c(c2)OCO3)CC1,4,1,1,2,3,.,.,8,

# Some of the compounds tested; the hit share may differ from the screen's.
